From PubChem BioAssay
2A StopGo = High Throughput Screening for Foot and Mouth Disease Virus Antivirals. human cells with a luciferase reporter of 2A StopGo recoding; control for the full effect not named in the record. Potency, µM (doses to about 57.9 µM), inactives show at the top dose signal change, negative = less light. 410,000 tested, 1.2% active. AID 1159524, 2015; active = well fitted falling curve with a large enough effect; inconclusive = small, poorly fitted or top-dose-only effect; inactive = no such curve, though single readings can be large or run the other way; tested in HEK293T cells; also: % is scaled to controls: 0 for no effect and ±100 for the full control effect; nearly all actives have a fitted effect of over 45% in size; luciferase light after 4 h
SARS PLpro yeast = qHTS of Yeast-based Assay for SARS-CoV PLP. Potency, µM (titrated, usually from 32.9 µM), for inactives: at the highest dose activity, positive = growth rescue. AID 485353, 2010. S. cerevisiae expressing SARS-CoV PLpro, growth rescue; control for the full effect not named in the record. 330,000 tested, 0.19% active; active means well fitted rising curve with a large enough effect; inconclusive means small, poorly fitted or top-dose-only effect; inactive means no such curve, though single readings can be large or run the other way; also: 0% is about no effect; nearly all actives have a fitted effect of over 55% in size; growth read by luminescence after 48 h
RE007 growth inh = qHTS Assay for Inhibitors of the HIV-1 protein Vpr; 360,000 tested, 0.21% active; AID 651644, 2012; Potency, µM (titrated, usually from 92.2 µM), for inactives: top-dose activity change, negative = less growth; S. pombe RE007 Vpr strain, BacTiter-Glo ATP luminescence, 24 h; control for the full effect not named in the record; active = well fitted falling curve with a large enough effect; inconclusive = small, poorly fitted or top-dose-only effect; inactive = no such curve, though single readings can be large or run the other way;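 also: % is scaled to controls: 0 for no effect and ±100 for the full control effect; nearly all actives have a fitted effect of over 50% in size; the assay follows cell death caused by Vpr and the record does not say whether a fall means rescue or toxicity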
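Fission yeast RE007 carrying one integrated HIV-1 vpr copy, seeded at OD 0.01 in PMG+AL medium with 23 nL pinned compound. Grown 24 h at 30 degrees; viability read by BacTiter-Glo luminescence after 5 min.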
* marks the source's active call; other numbers are inactive results; ? = inconclusive; & = joins results of further samples; [ ] = another dose, or the depositor's remark. Potency is read from the fitted curve at half-maximal effect. A portion of the library; count on the stated rates, not on these rows.

Values run as follows: 2A StopGo, SARS PLpro yeast, RE007 growth inh
1: CCOc1cccc2cc(C(C)=O)oc12
    -2%, -6%, 8%
2: COC(=O)[C@@]12CCCCN1[C@H](c1ccc(-c3cccc(Cl)c3)cc1)[C@H]1C(=O)N(C)C(=O)[C@H]12
    ?, -2%, 7%
3: Cc1ccc(C(=O)COC(=O)COc2ccccc2O)cc1C
    -7%, 0%, -8%
4: CCOC(=O)C[N+]1(C)CCN(C(C)=O)CC1
    5%, 3%, 9%
5: COc1ccc([C@H]2CC(=O)C=C(c3ccc(Cl)c(C(F)(F)F)c3)C2)cc1
    -2%, 7%, -3%
6: COc1ccc(NS(=O)(=O)c2ccc(F)c(F)c2F)cc1S(=O)(=O)N1CCOCC1
    14%, -8%, -9%
7: COc1ccccc1CNC(=O)CCN=C1NS(=O)(=O)c2ccccc21
    -6%, -3%, 3%
8: COc1ccc2[nH]c3c(c2c1)CCN1C(=O)C(CC(=O)NCc2cccc(C(F)(F)F)c2)C[C@H](C(=O)N2CCOCC2)[C@@]31C (some centres not stated)
    -18%, 0%, 9%
9: CN(C)S(=O)(=O)c1cccc(NC(=O)CCNC(=O)Nc2ccccc2)c1
    2%, 0%, -4%
10: COc1ccc([C@@H]2[C@@H]3C(=O)N(C(C)(C)C)C(=O)[C@@H]3[C@]3(Cc4ccccc4)C(=O)N(c4ccc(C)cc4)C(=O)N23)cc1
    -6%, 3%, 0%
11: C/C(=N\NS(=O)(=O)c1ccc(C)c([N+](=O)[O-])c1)c1ccc2c(c1)OCO2
    13%, -3%, -23%
12: Cc1[nH]c2ccccc2c1C(=O)COC(=O)c1nccnc1N
    18%, 1%, -9%
13: CC1CCN(c2ccc3c(c2)S(=O)(=O)c2cccc(C(=O)NC[C@@H]4CCCO4)c2C3=O)CC1
    17%, 11%, -4%
14: C[C@H](CO)N1C[C@H](C)[C@@H](CN(C)C(=O)Nc2ccc3c(c2)OCO3)Oc2c(NS(=O)(=O)c3ccccc3)cccc2C1=O
    82%[activator], 14%, 11%
15: O=C(Cc1ccccc1)N[C@@H]1c2ccccc2CC[C@@H]1OCc1ccccc1
    -15%, -19%, -1%

Additional records:
Values run as follows: 2A StopGo, SARS PLpro yeast, RE007 growth inh
16: CN(CC(=O)Nc1cccc(F)c1)C(=O)c1cc(=O)[nH]c2ccccc12
    -17%, -2%, 3%
17: O=c1c2c(O)cc(O)cc2oc2c(O)ccc(O[C@H]3O[C@@H](CO)[C@H](O)[C@@H](O)[C@@H]3O)c12
    -17%, 0%, -17%
18: COc1ccc([C@H]2CC(=O)C=C(c3cccc4c3Oc3ccccc3S4)C2)cc1OC
    ?, 5%, 7%
19: Cc1ccc(OCC(=O)Nc2cccc(S(=O)(=O)N3CCCCCC3)c2)c([N+](=O)[O-])n1
    -12%, -7%, -2%
20: O=C(Cc1ccccc1F)Nc1ccc(S(=O)(=O)N2CCCC2)cc1
    16%, 6%, 22%
21: N#Cc1cccnc1N1CCN(C(=O)c2cccc3c2C(=O)c2ccc(Cl)cc2S3(=O)=O)CC1
    -10%, -19%, -13%
22: Cc1noc(C)c1NC(=O)Nc1cccc2c1O[C@H](CN(C)C(=O)NC(C)C)[C@@H](C)CN([C@H](C)CO)C2=O
    11%, -40%, 2%
23: CCN1C(=O)[C@H]2[C@@H](c3ccc(-c4ccc5c(c4)OCO5)c(OC)c3)N[C@@](CC(C)C)(C(=O)OC)[C@H]2C1=O
    -22%, -2%, -6%
24: Cc1cccc2cn[nH]c12
    10%, 0%, -3%
25: Cc1ccccc1NC(=O)Cc1nc(COC(=O)c2ccc(S(C)(=O)=O)c([N+](=O)[O-])c2)cs1
    ?, 3%, 9%
26: O=C(OCC(=O)N1CCN(c2ccc(F)cc2)CC1)c1cnc2ccccc2n1
    21%, -1%, 1%
27: COC(=O)C1=C(c2ccccc2OCc2ccccc2)C[C@@H]2CC[C@H]1N2C(=O)NCc1ccc(Cl)cc1
    0%, -9%, 9%
28: CCCN(CC(=O)Nc1ccccc1C)C(=O)c1ccc(N2CCCC2=O)cc1
    0%, 5%, -1%
29: CC1CCCC(C)N1C(=O)COC(=O)CN1C(=O)c2ccccc2C1=O (configuration not stated)
    -15%, -5%, 4%
30: O=C(/C=C/c1ccc([N+](=O)[O-])cc1)NCCOc1ccc(F)cc1
    4%, -7%, -13%

Entries 24–25, reprinted for reference:
Values run as follows: 2A StopGo, SARS PLpro yeast, RE007 growth inh
24: Cc1cccc2cn[nH]c12
    10%, 0%, -3%
25: Cc1ccccc1NC(=O)Cc1nc(COC(=O)c2ccc(S(C)(=O)=O)c([N+](=O)[O-])c2)cs1
    ?, 3%, 9%

Remaining list, next part
Values run as follows: 2A StopGo, SARS PLpro yeast, RE007 growth inh
31: CC(=O)c1ccc(OCCCC(=O)Nc2ccc3c(c2)OCCO3)cc1
    -30%, 0%, 9%
32: c1ccc(-[n+]2nc(Nc3cccc4ccccc34)sc2-c2c3ccccc3cc3ccccc23)cc1
    -9%, 1%, -18%
33: OC(COc1ccccc1)CN1CCCC1 (configuration not stated)
    -9%, -1%, 12%
34: COc1ccc(N2C(=S)N=C(Nc3ccccc3)C23CCCCC3)cc1
    5%, 2%, -3%
35: CC(=O)C(CC(=O)N1CCCC1)C(=O)Nc1ccc(Cl)cc1 (configuration not stated)
    29%, -7%, 6%
36: CC1CCCCC1NC(=O)CN1C(=O)NC(C)(c2cccc(Br)c2)C1=O (configuration not stated)
    -10%, 1%, 11%
37: CCN(C[C@H]1N[C@@](C)(C(=O)OC)[C@H]2C(=O)N(C)C(=O)[C@@H]12)C(=O)Nc1ccccc1
    0%, -1%, 2%
38: CSc1ccccc1NC(=O)CN(C)C(=O)CNc1ccc(C(F)(F)F)cc1[N+](=O)[O-]
    -6%, 1%, 1%
39: O=C(N/N=C/c1ccc([N+](=O)[O-])cc1)c1c[nH]c2ccccc12
    37%[activator], -1%, -3%
40: Cc1ccccc1C(C)NS(=O)(=O)c1ccc2c(c1)OCCO2 (configuration not stated)
    43%[activator], -2%, 4%
41: C[C@H](CO)N1C[C@H](C)[C@@H](CN(C)S(=O)(=O)c2ccccc2)Oc2ccc(NC(=O)c3ccncc3)cc2C1=O
    -23%, -1%, -3%
42: COc1ccc(C2=CCN3CCCCC3C2)c(-c2ccc(OC)c(OC)c2)c1 (configuration not stated)
    -13%, 0%, -14%
43: C=CC[C@@H](CC(=O)N[C@H](CO)Cc1ccccc1)C(=O)N[C@@H](C)COC(=O)[C@@H](CC=C)CC(=O)OC(C)(C)C
    -30%, 9%, 28%
44: CCC(C)c1ccccc1N1CC(C(=O)N2CCN(C(=O)c3ccco3)CC2)CC1=O (configuration not stated)
    -20%, 2%, -3%
45: Cc1ccc(C(=O)c2c3ccc([N+](=O)[O-])cc3[n+]([O-])n2CCCC(N)=O)cc1
    16%, -4%, -17%

(next part)
entry	SMILES	2A StopGo	SARS PLpro yeast	RE007 growth inh
46	COc1cc(C)ccc1OCC(=O)OCC(=O)NCC1CCCCC1	-23%	-4%	9%
47	CC1CN(S(=O)(=O)c2cc(C(=O)N3CCCCC3C)ccc2Cl)CC(C)O1 (configuration not stated)	-23%	3%	-16%
48	CCN(CC(=O)NCc1cccs1)c1ccc(S(=O)(=O)N2CCCC2)cn1	-10%	-2%	0%
49	Cc1ccc([C@H]2C(C(=O)O)=C[C@@H](C(C)(C)C)N2S(=O)(=O)c2ccc(C)cc2)cc1	0%	1%	3%
50	CC(C(=O)N(C)CC(=O)Nc1ccccc1C(F)(F)F)N1C(=O)c2ccccc2C1=O (configuration not stated)	-12%	-1%	0%
51	Nc1ccc2nc(CCCCCCCCc3nc4ccc(N)cc4[nH]3)[nH]c2c1	-16%	2%	4%
52	COc1cc(C(C)=O)ccc1OCC(=O)NC(=O)Nc1ccc(C)cc1C	-13%	-5%	14%
53	COc1ccc(CC(=O)NCCS(=O)(=O)N2CCN(c3ccccc3)CC2)cc1	-12%	0%	-3%
54	COc1ccc(/C=N/NC(=O)c2ccc(N(C)S(=O)(=O)c3ccccc3)cc2)cc1	?	4%	-1%
55	CCOc1ccc(OCCCC(=O)ON=C(N)c2ccccc2C)cc1	-1%	5%	-7%
56	CC(=O)Nc1ccc(N=Nc2c(C)[nH]n(C(N)=S)c2=O)cc1	43%[activator]	-5%	-4%
57	CC(=O)c1cccc(S(=O)(=O)N2CCC(C(=O)OC3CCOC3=O)CC2)c1 (configuration not stated)	-16%	3%	-6%
58	O=C(COC(=O)c1ccc2ncsc2c1)NCc1ccc(F)cc1	-5%	-10%	-8%
59	C[C@H](CO)N1C[C@H](C)[C@@H](CN(C)Cc2ccncc2)Oc2c(NC(=O)Cc3ccccc3)cccc2C1=O	44%[activator]	-2%	-3%
60	NCCCn1c(C(=O)c2cc(Cl)c(N)c(Cl)c2)c2ccc(C(F)(F)F)cc2[n+]1[O-]	-22%	4%	1%
61	COc1cc2cc(CCCOC(=O)c3ccc4c(c3)OCO4)oc(=O)c2cc1OC	-6%	1%	-16%
62	CCCCCCSc1cccc(-c2nc3cc(C)ccn3c2NCc2ccccc2)c1	-25%&0%	-5%	-18%&-24%
63	COc1cccc(NC(=O)Cn2c(=O)n(CCC(=O)NCc3ccco3)c(=O)c3ccccc32)c1	39%[activator]	0%	-2%
64	CCn1cc(C(=O)N2CCN(c3ccccn3)CC2)c(=O)c2cc(S(=O)(=O)N(C)C3CCCCC3)ccc21	12%	-1%	2%
65	COC(=O)[C@]1(Cc2ccccc2)N[C@H](CN(C)C(=O)C2CCCCC2)[C@@H]2C(=O)N(C)C(=O)[C@@H]21	-5%	-3%	-9%
66	COc1cc(C(=O)OCc2cccc(OC)c2OC)ccc1OCC(=O)N1CCOCC1	-25%	-1%	1%
67	Cc1ccc(CNC(=O)c2cccc3c2C(=O)c2ccc(N4CCC(C)CC4)cc2S3(=O)=O)cc1	11%	1%	10%
68	CCN(C[C@H]1N[C@@](CC)(C(=O)OC)[C@H]2C(=O)N(Cc3ccccc3)C(=O)[C@@H]12)C(=O)Nc1ccc(OC)cc1	-3%	4%	13%
69	C=CCC[C@H](Cc1ccc(F)cc1)C(=O)OC[C@H](Cc1c[nH]c2ccccc12)NC(=O)[C@@H](CC=C)CC(=O)NCCO	?	-16%	-16%
70	CC(NS(=O)(=O)c1ccc2ccccc2c1)c1ccccn1 (configuration not stated)	7%	-3%	8%
71	O=C(Cn1cnc2c(NCc3ccccc3)ncnc21)NCc1ccccc1	-20%	-3%	2%
72	CN(CC(=O)Nc1ccccc1Cl)CC(=O)c1c(N)n(Cc2ccccc2)c(=O)n(C)c1=O	-29%	-24%	4%
73	O=c1c(/C=N/N2CCOCC2)c(C(F)(F)F)[nH]n1-c1ccccc1	-8%	5%	-12%
74	CC[N+]1(CC)CC2CCC(C)(C1)C2(C)C (configuration not stated)	-6%	4%	5%
75	O=[N+]([O-])c1cccc(-c2noc3c2-c2nc(Cc4cccc5ccccc45)sc2CC3)c1	29%	-1%	3%

Compound profiles, as listed above.
Profile of C[C@H](CO)N1C[C@H](C)[C@@H](CN(C)Cc2ccncc2)Oc2c(NC(=O)Cc3ccccc3)cccc2C1=O : 2A StopGo = 44%[activator]; SARS PLpro yeast = -2%; RE007 growth inh = -3%
Profile of O=C(Cn1cnc2c(NCc3ccccc3)ncnc21)NCc1ccccc1 : 2A StopGo = -20%; SARS PLpro yeast = -3%; RE007 growth inh = 2%

The main list resumes with the 3 entries that preceded the break.
entry	SMILES	2A StopGo	SARS PLpro yeast	RE007 growth inh
73	O=c1c(/C=N/N2CCOCC2)c(C(F)(F)F)[nH]n1-c1ccccc1	-8%	5%	-12%
74	CC[N+]1(CC)CC2CCC(C)(C1)C2(C)C (configuration not stated)	-6%	4%	5%
75	O=[N+]([O-])c1cccc(-c2noc3c2-c2nc(Cc4cccc5ccccc45)sc2CC3)c1	29%	-1%	3%
76	CC1CCCC(NC(=O)COC(=O)COc2ccc(Br)cc2)C1C (configuration not stated)	-4%	3%	3%
77	CN(CC(=O)Nc1ccc(OC(F)(F)F)cc1)C(=O)Cc1ccc2c(c1)CCC2	-6%	2%	-18%
78	COc1ccc(NC(=O)Cn2nnc(C(=O)NCCc3ccc(OC)c(OC)c3)c2N)c(OC)c1	32%[activator]	5%	-5%
79	CNC(=O)c1[nH]cnc1C(=O)Nc1ccccc1	30%[activator]	-1%	-1%
80	CCN(CC1COc2ccccc2O1)C(=S)NCCCN(C)C (configuration not stated)	-3%	1%	-19%
81	O=C(NNc1c(F)c(F)cc(F)c1F)C1CCN(S(=O)(=O)c2ccccc2F)CC1	-15%	4%	2%
82	CC(OC(=O)CN1C(=O)NC2(CCCCC2C)C1=O)c1ccccc1 (configuration not stated)	0%	-12%	2%
83	CS(=O)(=O)c1ccc(NC(=O)CCN2C(=O)NC3(CCCC3)C2=O)cc1	-11%	4%	22%
